# MARV entry inh – inhibitors of Marburg virus binding or cell entry | Potency, µM (top dose mostly 37.8 µM), inactives show at the highest dose activity change, negative = inhibition, most hits filed as inhibitors | Marburg virus pseudotyped entry inhibition, cell reporter; control for the full effect not named in the record; about a third of the inactives were read at about 46 µM | 1.8% of 300,000 active; active = well fitted inhibition curve with a large enough effect; inconclusive = small, poorly fitted or top-dose-only effect, or effect the other way; inactive = flat fitted curve, though single readings scatter; tested in HEK293 cells; about a fifth of its hits are not listed in these tables; note: % is set by controls: 0 for no effect and ±100 for the full control effect; luciferase read-out
# 2A StopGo – FMDV 2A StopGo reporter, luciferase signal. human cells with a luciferase reporter of 2A StopGo recoding; control for the full effect not named in the record. Potency, µM (highest dose often 57.9 µM), inactives show top-dose signal change, negative = less light. 1.2% of 410,000 active. AID 1159524; active = well fitted falling curve with a large enough effect; inconclusive = small, poorly fitted or top-dose-only effect; inactive = no such curve, though single readings can be large or run the other way; tested in HEK293T cells; note: % is set by controls: 0 for no effect and ±100 for the full control effect; nearly all actives have a fitted effect of over 45% in size; luciferase light after 4 h
# LASV entry inh – blocks Lassa virus binding to or entry into cells | Lassa virus pseudotype entry inhibition, cell reporter; control for the full effect not named in the record | 1.2% of 300,000 active | Potency, µM (top dose mostly 37.9 µM), for inactives: at the top dose activity change, negative = inhibition, actives largely listed as inhibitors; active means well fitted inhibition curve with a large enough effect; inconclusive means small, poorly fitted or top-dose-only effect, or effect the other way; inactive means flat fitted curve, though single readings scatter; tested in HEK293 cells; note: % is set by controls: 0 for no effect and ±100 for the full control effect; nearly all actives have a fitted effect of over 50% in size; luciferase read-out
# Cruzain noTriton – blocks cruzain activity in detergent-free assay; purified cruzain, Z-FR-AMC fluorescence, no detergent; Potency, µM, for the others: max response, negative = inhibition, usual class: inhibitors; 2.3% of 200,000 active; AID 1476;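 note: plate controls were enzyme without inhibitor for no effect and buffer without enzyme for full effect; nearly all actives have a fitted effect of over 40% in size; top concentration of the series not given in the record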
# Target sequence (P25779 123-467 limits assumed): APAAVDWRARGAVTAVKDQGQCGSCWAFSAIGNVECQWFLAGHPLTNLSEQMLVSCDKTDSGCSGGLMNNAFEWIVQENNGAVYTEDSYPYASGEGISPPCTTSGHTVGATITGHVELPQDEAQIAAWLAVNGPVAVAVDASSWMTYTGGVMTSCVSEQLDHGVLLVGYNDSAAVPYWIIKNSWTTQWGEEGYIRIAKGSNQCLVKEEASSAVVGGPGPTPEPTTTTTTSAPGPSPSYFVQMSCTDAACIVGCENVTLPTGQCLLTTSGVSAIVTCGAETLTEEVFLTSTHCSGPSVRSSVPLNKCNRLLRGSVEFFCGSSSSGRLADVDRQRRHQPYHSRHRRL
#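 Purified cruzain at 1.5 nM, pre-incubated 15 min with compound at room temperature in 100 mM sodium acetate pH 5.5, 5 mM DTT, 0.00005% Triton X-100. Reaction started with 2 uM Z-FR-AMC; AMC fluorescence increase over 60 s gives rate.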
# SARS PLP yeast – blocks SARS-CoV papain-like protease in a yeast assay. S. cerevisiae expressing SARS-CoV PLpro, growth rescue; control for the full effect not named in the record. Potency, µM (series often up to 32.9 µM), for the others: top-dose activity, positive = growth rescue. 0.19% of 330,000 active. AID 485353; active means well fitted rising curve with a large enough effect; inconclusive means small, poorly fitted or top-dose-only effect; inactive means no such curve, though single readings can be large or run the other way; note: 0% is about no effect; nearly all actives have a fitted effect of over 55% in size; growth read by luminescence after 48 h
# NS1 function inh – influenza NS1 inhibition | S. cerevisiae slowed by influenza A NS1, growth recovery by OD600 | 0.4% of 270,000 active | Potency, µM (series often up to 46.1 µM), for inactives: at the highest dose activity, positive = more growth; active means well fitted rising curve with a large enough effect; inconclusive means small, poorly fitted or top-dose-only effect; inactive means no such curve, though single readings can be large or run the other way; note: nearly all actives have a fitted effect of over 50% in size
#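 Read-out: OD600 growth recovery of NS1-expressing budding yeast. Cells grown overnight at 30C in -URA glucose medium, washed, resuspended and diluted 1:100 in 2% galactose assay medium, pH 6.0. Same strain lacking NS1 served as positive control.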
# RE007 growth inh – less growth of the S. pombe RE007 Vpr strain; AID 651644; 0.21% of 360,000 active; Potency, µM (top dose mostly 92.2 µM), for the others: at the highest dose activity change, negative = less growth; S. pombe RE007 Vpr strain, BacTiter-Glo ATP luminescence, 24 h; control for the full effect not named in the record; active = well fitted falling curve with a large enough effect; inconclusive = small, poorly fitted or top-dose-only effect; inactive = no such curve, though single readings can be large or run the other way;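 note: % is set by controls: 0 for no effect and ±100 for the full control effect; nearly all actives have a fitted effect of over 50% in size; the assay follows cell death caused by Vpr and the record does not say whether a fall means rescue or toxicity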
#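 Fission yeast RE007 carrying one integrated HIV-1 vpr copy, seeded at OD 0.01 in PMG+AL medium with 23 nL pinned compound. Grown 24 h at 30 degrees; viability read by BacTiter-Glo luminescence after 5 min.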
# Cruzain inh Det – cruzain (T. cruzi) inhibition with detergent; Potency, µM, inactives show max response, negative = inhibition, most hits filed as inhibitors; purified cruzain, Z-FR-AMC fluorescence, 0.01% Triton; P25779; AID 1478; 0.43% of 200,000 active;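 note: plate controls were neutral wells for no effect and buffer without enzyme for full effect; nearly all actives have a fitted effect of over 40% in size; top concentration of the series not given in the record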
#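 Read-out: AMC fluorescence (360 nm excitation, 450 nm emission), four reads over 2 min, first-to-third difference used. Conditions: cruzain 1.5 nM, Z-FR-AMC 2 uM, pH 5.5 acetate, 5 mM DTT, 0.01% Triton X-100.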
# An asterisk follows results filed as active; u = inconclusive; x = no result given; [ ] = dose if it differs, or a comment. Unless noted, calls come from the whole dose curve; as a rule, active = well fitted curve in the direction sought with a large enough effect; inconclusive = small, poorly fitted or top-dose-only effect, or another doubt; inactive = no such curve, though single readings can be large; an effect the other way counts as inactive or inconclusive. Potency is the fitted concentration of half-maximal effect.
molecule,2A StopGo,Cruzain inh Det,SARS PLP yeast,MARV entry inh,NS1 function inh,Cruzain noTriton,LASV entry inh,RE007 growth inh
O=C(NC(=S)Nc1ccc2oc(-c3cccnc3)nc2c1)c1cccc(Cl)c1,-27%,-8.7%,6%,-1%,17%,-15%,-2%,-2%
COc1ccc(NC(=O)C2CCCN(c3ncccn3)C2)cc1 (stereo not drawn),52%[activator],x,0%,u,-3%,x,u,0%
COc1cc(OC)c(NC(=O)CCCn2nc(C)c3c(C)n(-c4ccccc4)nc3c2=O)cc1Cl,u,-2.8%,x,x,x,u,6%[46.1 µM],x
CCOc1ccc(C(=O)Nc2ccc(C(=O)OCc3cc(=O)n4c(C)csc4n3)cc2)cc1,-19%,0.0%,x,x,x,8%,u,x
COc1cccc(C(=O)NCC(c2ccc(N(C)C)cc2)N2CCOCC2)c1OC (stereo not drawn),-3%,5.5%,x,x,x,17%,2%[46.1 µM],x
CCN(CC(=O)Nc1cccc(S(=O)(=O)N(C)c2ccccc2)c1)Cc1cccs1,-29%,x,-10%,u,x,x,u,-7%
COc1ccccc1N1C(=O)c2ccccc2NC1C(OC)OC (stereo not drawn),14%,-3.7%,6%,8%,-4%[9.22 µM],u,-4%,-17%
COC(=O)c1cc2oc3ccccc3c2n1Cc1nc(-c2ccccc2Cl)oc1C,-12%,0.4%,x,2%[46.1 µM],x,-13%,x,x
COc1ccccc1OCCSc1nc2ccccc2n1CC(N)=O,24%,x,1%,15%,-2%,x,-15%,-25%
CC(=O)c1ccc(NC(=S)NC(=O)/C=C/c2ccccc2)cc1,32%[activator],x,5%,x,5%,x,x,6%
O=C(Nc1nnc(-c2ccco2)o1)c1ccc(Cl)s1,43%[activator],x,-10%,x,-87%,x,x,-16%
O=C(Nc1nccs1)c1cnccn1,13%,-0.5%,-2%,5%,6%,-8%,u,4%
CC(C)c1ccc(NC(=O)C2CCCN(S(=O)(=O)c3cccnc3)C2)cc1 (stereo not drawn),-9%,x,17%,u,29%,x,u,-8%
Cn1c(=O)c(-c2ccccc2)nn2c3ccccc3nc12,-16%,1.8%,-1%,24%[46.1 µM],2%,-19%,9%,-15%
CN(C)CCCN(Cc1ccccc1)C(=S)Nc1cccc(C(F)(F)F)c1,-15%,-1.0%,3%,u,-5%,1%,u,6%
O=C(Nc1ccccc1)Nc1nnc(Cc2ccccc2F)s1,3%,x,-6%,-3%,-2%,x,-16%,-10%
COc1ccc(C(CNC(=O)Cc2ccccc2Cl)N2CCCCC2)cc1 (stereo not drawn),-1%,x,1%,4µM*,10%,x,-11%[46.1 µM],14%
COc1ccc2[nH]c3c(=O)n(CCCC(=O)NC4CCC(C)CC4)c(=S)[nH]c3c2c1 (stereo not drawn),-11%,x,0%,x,0%,x,x,24%
Cc1ccc([N+](=O)[O-])cc1S(=O)(=O)N1CCn2cccc2C1c1ccccc1F (stereo not drawn),-20%,-1.9%,x,x,x,-17%,u,x
COc1ccc(NC(=O)CSc2nnc(-c3ccccc3F)n2C2CC2)cc1S(N)(=O)=O,-3%,x,4%,18%,6%,x,u,5%
CC(C)c1ccc(NS(=O)(=O)c2ccc3[nH]cc(C(=O)NC4CCCCC4)c(=O)c3c2)cc1,25%,-11%,x,u,x,u,-10%[46.1 µM],x
CC(=O)Nc1ccc(S(=O)(=O)N2CCC(C(=O)NCCC(=O)NCc3ccncc3)CC2)cc1,-17%,x,-2%,x,-3%,x,x,-2%
O=C(Cc1ccccc1)Nc1cc(C(=O)c2ccccc2)ccc1N1CCOCC1,-2%,-4.2%,-11%,12%,-48%,9%,u,-2%[3.69 µM]
O=C(C1CCN(S(=O)(=O)c2ccccc2)CC1)N1CCOCC1,14%,2.7%,26%,-16%,-12%,1%,3%,4%
CCN(CC)CCSc1nc(O)c(-c2ccccc2)c(=O)n1-c1ccccc1,-16%,x,0%,-1%,3%,x,9%,3%
CCc1sc(C(=O)Nc2cccnc2)cc1Br,2%,x,-13%,10%[46.1 µM],-70%,x,-14%[46.1 µM],-29%
CCOC(=O)N1CCN(C(=O)CN(c2ccc(OC)c(OC)c2)S(C)(=O)=O)CC1,6%,2.2%,-2%,u,-11%,-1%,18%,-5%
O=C(CCN1CCN(c2ccccc2F)CC1)Nc1ccccc1Cl,-17%,x,1%,-24%,0%,x,3%,-13%
CCC(=O)N1CCc2cc(Br)cc(S(=O)(=O)NCCc3cccc(C)c3)c21,53%[activator],-4.1%,x,x,x,-5%,-2%[46.1 µM],x
COc1ccc(-c2csc3ncnc(N4CCN(S(=O)(=O)c5cccc(C(F)(F)F)c5)CC4)c23)cc1,-17%,x,-6%,1%,x,x,4%,-22%

# (next part)
molecule,2A StopGo,Cruzain inh Det,SARS PLP yeast,MARV entry inh,NS1 function inh,Cruzain noTriton,LASV entry inh,RE007 growth inh
Cc1ccccc1C=O,0%,-1.1%,-3%,x,x,7%,x,0%
CCOC(=O)CSc1nnc([C@@H](NC(=O)OC(C)(C)C)C(C)C)o1,-18%,1.6%,0%,u,-11%,15%,23%,7%
COc1cc2c(cc1OC)CN(Cc1ccccc1)CC2,-18%,x,3%,u,6%,x,-8%[46.1 µM],8%
COc1cccc(N(C(=O)CS(=O)CC(=O)Nc2ccc(F)cc2)C(C(=O)NC2CCCCC2)c2cccs2)c1 (stereo not drawn),-4%,2.5%,21%,-20%,8%,12%,-6%,2%
CCOC(=O)N1CCN(C(=O)c2ccc3c(c2)ncn3C2CCCC2)CC1,x,5.1%,-3%,0%,-3%,2%,5%,-15%
O=C(NCC(c1cccnc1)N1CCN(Cc2ccccc2)CC1)C(=O)Nc1cccc(Cl)c1 (stereo not drawn),0%,-2.8%,x,x,x,-3%,u,x
O=C(C1=C[C@H](C2CCCCC2)C[C@H](OCCCCO)O1)N1CCN(Cc2ccc3c(c2)OCO3)CC1,-25%,x,0%,x,-8%,x,x,-9%
O=C(N/N=C/c1ccc(F)cc1)c1ccc(-n2cnnn2)cc1,-7%,x,-4%,5%[46.1 µM],x,x,6%,-11%
CCN(c1ccccc1C)S(=O)(=O)c1cc2c3c(c1)CCN3C(=O)CC2,23%,x,-1%,6%,x,x,11%,-2%
Cc1ccc(S(=O)(=O)N2CCCC2CNC(=O)c2ccc(F)c(F)c2)cc1 (stereo not drawn),-20%,x,-1%,-8%,x,x,-26%,6%
COC(=O)C(CC(=O)c1ccc(C)cc1)n1nc(C)cc1C (stereo not drawn),9%,x,-1%,x,12%,x,x,-12%
COc1ccc(CCNC(=O)CN2C(=O)c3cccc4cccc(c34)C2=O)cc1OC,-6%,x,0%,x,3%,x,x,5%
O=C(Nc1ccc(N2CCOCC2)cc1)C1CC(=O)N(c2ccccc2)C1 (stereo not drawn),10%,x,-1%,x,1%,x,x,-9%
O=C(Cc1ccc(O)cc1)N/N=C/c1cccnc1,12%,x,-1%,x,7%,x,x,3%
COc1cc2c(=O)n(Cc3ccccc3)c(=O)n(CC(=O)NCCc3ccccc3)c2cc1OC,-15%,5.5%,14%,15%,1%,u,u,22%
O=C(COc1ccccc1[N+](=O)[O-])N/N=C/c1ccc(OC(=O)c2ccco2)cc1,18%,-1.3%,-5%,u,7%,-10%,4%,1%
Cc1ccc(C)c(Cn2c(=O)n(Cc3ccccc3)c(=O)c3c2c2cc(C)ccc2n3C)c1,-17%,-0.2%,x,x,x,3%,11%[46.1 µM],x
Cc1ccc(S(=O)(=O)Nc2ccc(OCC(=O)N3CCOCC3)cc2)c(C)c1NS(C)(=O)=O,10%,x,13%,5%[46.1 µM],9%,x,-1%[46.1 µM],6%
Cc1ccc(C)c(N2CCN(C(=O)Cc3c(C(=O)O)[nH]c4ccc(Cl)cc34)CC2)c1,-14%,x,0%,x,0%,x,x,-1%
CCOC(=O)C1CCN(c2c(NCCCN(CC)c3ccccc3)c(=O)c2=O)CC1,1%,3.2%,2%,19%,-9%,-10%,7%,8%
Cc1ccc2c(c1)c1c(n2CC(O)CNC2CCCCC2)CCCC1 (stereo not drawn),-27%,x,0%,x,-3%,x,x,-4%
COC(=O)[C@H](CC(C)C)NC(=O)N1CCCCC1,-7%,x,1%,-15%[46.1 µM],0%,x,-7%[46.1 µM],-3%
CC(C)(C)c1ccc(C(=O)CSc2nc3ccccc3c(=O)[nH]2)cc1,22%,8.0%,-2%,-27%,17%,0%,-6%,21%
CCOc1ccc(CN(C)C(C)C(=O)NCCc2ccc(F)cc2)cc1 (stereo not drawn),-7%,x,2%,-24%[46.1 µM],-12%,x,4%[46.1 µM],-9%
Cc1ccc2nc3c(cc(C#N)c(=O)n3-c3nnc(SCc4ccccc4)s3)c(=O)n2c1,-2%,1.8%,x,1%[46.1 µM],x,-4%,20%[46.1 µM],x
CCc1c(C(=O)NCCc2cccc(C)c2)[nH]c(C)c1C(C)=O,23%,x,6%,u,-4%,x,3.5µM*,11%
Cc1ccc(C(=O)OCC(=O)N(Cc2ccccc2)C(C)C)cc1C,-14%,x,-2%,4%,x,x,13%[46.1 µM],2%
CCOc1ccc(S(=O)(=O)N2CCN(c3ccccn3)CC2)cc1,-16%,x,2%,x,15%,x,x,6%
O=C(CCCc1ccccc1)NC1CC(=O)N(c2ccc(Cl)cc2)C1 (stereo not drawn),-14%,-3.4%,x,x,x,-2%,-3%[46.1 µM],x
O=C(Nc1cccc(Cl)c1)OCc1ccccn1,66%[activator],-1.1%,-6%,11%,-83%,1%,2%,2%
O=C(NCc1cccnc1)c1cccn2c(=O)c3sccc3nc12,-4%,-9.1%,-2%,0%,10%,4%,10%,16%
CC(=O)c1ccc(NC(=O)c2nc(-c3ccc(C)cc3)n3c2CCCCC3)cc1,-18%,0.0%,x,x,x,-2%,23%[46.1 µM],x
CC(=O)O[C@H]1CC[C@@]2(C)C(CCC3C2CC[C@]2(C)OC(=O)CCC32)C1 (stereo partly drawn),-18%,-3.9%,-47%,u,-28%,-14%,25%,-2%

# Not a hit list; any-hit rate near 4.7%.
